VDR inhibitor = Inhibitors of the vitamin D receptor (VDR): qHTS; Vitamin D3 receptor (Homo sapiens), P11473; VDR-SRC2-3 peptide fluorescence polarization, 2 h; Potency, µM, without a hit: max response, negative = inhibition, actives largely listed as inhibitors; actives 0.93% (n = 400,000); AID 504847, 2011; active = well fitted inhibition curve with a large enough effect; inconclusive = small, poorly fitted or top-dose-only effect, or another doubt; inactive = no such curve, though single readings can be large or run the other way; also: series mostly up to about 120 µM
Target sequence (P11473 whole entry, looked up): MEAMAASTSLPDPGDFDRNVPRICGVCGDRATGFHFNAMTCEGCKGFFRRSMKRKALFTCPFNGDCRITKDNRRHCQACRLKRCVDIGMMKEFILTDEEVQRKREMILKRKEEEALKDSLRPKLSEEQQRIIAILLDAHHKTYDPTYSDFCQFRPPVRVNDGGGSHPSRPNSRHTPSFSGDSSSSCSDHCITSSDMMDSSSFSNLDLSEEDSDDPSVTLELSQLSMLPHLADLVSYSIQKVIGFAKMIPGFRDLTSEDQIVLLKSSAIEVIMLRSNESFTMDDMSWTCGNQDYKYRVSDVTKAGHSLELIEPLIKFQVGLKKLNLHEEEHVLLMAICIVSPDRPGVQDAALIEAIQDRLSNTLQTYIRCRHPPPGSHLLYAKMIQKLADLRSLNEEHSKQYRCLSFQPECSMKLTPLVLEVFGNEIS
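Reagent solutions, kept cold and dark, are dispensed first; compounds are then pinned in at 23 nl, plates briefly spun, and incubated 2 h at ambient temperature. Inhibition of VDR–SRC2-3 peptide binding is read by fluorescence polarization.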
* hit, by the source's call; u = inconclusive; & = joins results of further samples; [ ] = another dose, or the depositor's remark. % is scaled to controls: 0 for no effect and ±100 for the full control effect; potency is read from the fitted curve at half-maximal effect. These rows are one share of the data, so the mix of outcomes need not match the whole.

Start of the data: the first four entries, ahead of the listing:
VDR inhibitor,Compound
-23.3%,Cc1ccc2oc(=O)c(-c3ccc(O)cc3)c(C)c2c1
-21.4%,C=CCN(CC=C)C(=S)Nc1ccc2nsnc2c1
3.4%,COc1ccc2c(Cl)c(C(=O)N/N=C/c3ccncc3)sc2c1
22.4µM*,CCOc1cc(C(Nc2cc(C)ccn2)c2ccc3cccnc3c2O)ccc1OC (stereo not given)

The listing, repeating the preview:
VDR inhibitor,Compound
-23.3%,Cc1ccc2oc(=O)c(-c3ccc(O)cc3)c(C)c2c1
-21.4%,C=CCN(CC=C)C(=S)Nc1ccc2nsnc2c1
3.4%,COc1ccc2c(Cl)c(C(=O)N/N=C/c3ccncc3)sc2c1
22.4µM*,CCOc1cc(C(Nc2cc(C)ccn2)c2ccc3cccnc3c2O)ccc1OC (stereo not given)
7.9%,CCC(C)[C@H](NC(=O)N1CC(=O)Nc2ccccc21)C(=O)NC(C)CCc1ccccc1 (stereo not given in full)
-15.8%,CC(=O)Nc1ccc(NC(=O)CN2CCN(c3cccc(C(F)(F)F)c3)CC2)cc1
-11.6%,O=C(NCCCN1CCCC1=O)c1ccc(Cl)c(Cl)c1
-11.0%,CC(C)CN1CCN(Cc2cnc(N3CCOCC3)s2)CC1CCO (stereo not given)
8.9%,COc1cc(NC(=S)Nc2ccc3c(c2)OCCO3)cc(OC)c1OC
-4.4%,Cc1cccc(NC(=O)CSc2nc(=O)n(Cc3ccccn3)c3c2CCC3)c1C
0.7%,O=C(COC(=O)Cn1[nH]c(=O)c2ccccc2c1=O)Nc1ccc2c(c1)OCO2
1.7%,Cc1nnc2ccc(-c3ccc(NS(=O)(=O)c4ccccc4F)cc3)nn12
-11.8%,Cc1cccc(NS(=O)(=O)c2ccc(Br)s2)n1
-18.8%,COCCNCCOc1ccc(C)cc1[N+](=O)[O-]
10.0%,CCOC(=O)C1(CCOc2ccccc2)CCN(Cc2ccc(C)o2)CC1
70.8µM*,O=C(NC(=S)Nc1ccccc1C(=O)O)c1ccc(-c2ccc(Br)cc2)o1
-1.6%,CC(C)(CNC(=O)c1cccc(NS(=O)(=O)c2ccc(Br)cc2)c1)N1CCOCC1
-15.6%,O=C(NCCS(=O)(=O)NCC1CCCO1)c1ccccc1 (stereo not given)
11.3%,O=[N+]([O-])c1ccc(Oc2ccc(-c3nnco3)cc2)c(Cl)c1
98.0%[activator],Cc1ccc(N2C(=O)CS/C2=C(\C(Cl)=C(Cl)Cl)[N+](=O)[O-])cc1
-17.7%,COc1ccc(C)c2sc(N(CCN(C)C)C(=O)c3cccc(N4C(=O)CCC4=O)c3)nc12
-8.4%,Cc1csc(NC(=O)C2CC(=O)N(Cc3ccco3)C2)n1 (stereo not given)
3.9%,O=C(Nc1ccc(Br)cc1F)c1ncoc1-c1ccco1
-2.1%,CC(C)c1ccccc1NC(=O)Cn1c(/C=C/c2ccccc2)nc2ccccc21
-24.8%,Oc1c(C(c2ccc(Cl)cc2)N2CCCC2)cc(Cl)c2cccnc12 (stereo not given)
7.4%,COc1ccc(/C=C2\Oc3cc(OCC(=O)N4CCC[C@H]4C(=O)O)ccc3C2=O)c(OC)c1OC
-18.1%,Cc1cc(C(=O)CS(=O)(=O)c2ccc(F)cc2)cc(C)c1O
-8.2%,COc1ccc(/C=N/N2CCN(Cc3ccccc3)CC2)cc1
10.2%,O=C1CN(C(=O)c2cc3ccccc3oc2=O)C(c2ccc(F)cc2)c2cc(Br)ccc2N1 (stereo not given)
14.3%,CCC(=O)N1c2ccccc2CC1C(=O)NCCN1CCN(c2cc(Cl)ccc2C)CC1 (stereo not given)

Further results.
VDR inhibitor,Compound
-11.1%,NC(=O)C1CCN(C(=O)c2cc3c(s2)CCCCC3)CC1
-4.1%,Cc1ccc(CNC(=O)C2CCC(=O)N2Cc2ccccc2Cl)cc1 (stereo not given)
0.0%,CCOC(=O)c1cnn(-c2ccccc2)c1-n1cccc1C(=O)C(=O)N(CC)CC
-7.8%,O=C(CCc1nnc2n(Cc3ccc(Cl)cc3)c(=O)c3ccccc3n12)N1CCN(c2ccccn2)CC1
1.5%,CCOC(=O)C1C(=O)Nc2nc3ccccc3n2C1C(C)C (stereo not given)
8.5%,CC(=O)OC(C(=O)NC1CCCCC1)c1ccccc1F (stereo not given)
3.1%,COc1ccc(-c2nc3ccccc3o2)cc1NC(=O)c1cc([N+](=O)[O-])ccc1N1CCOCC1
11.8%,CC(C)(C)c1ccc(-c2cnco2)cc1
4.1%,O=C(Nc1ccc(Br)cc1)c1ccccc1Br
25.2%,CCN1CCN(S(=O)(=O)c2c(C)[nH]c(C)c2C(=O)N2CCCCC2)CC1
-7.1%,Nn1c(SCC(=O)NNC(=O)c2ccccc2)nnc1-c1ccccc1F
2.4%,CCCCC(=O)Nc1ccc(Br)cn1
11.8%,O=C(CSc1nnc2scc(-c3ccccc3)n12)Nc1ccc2c(c1)OCCO2
-10.4%,Cc1nnc2n(Cc3ccccc3)c(=O)c3c4c(sc3n12)COC(C)(C)C4
-17.3%,COc1cccc(CN2C(=O)c3cccc(N)c3C2=O)c1
9.6%,Clc1ccccc1OCCn1cnc2ccccc21
12.5%,O=C(CCCn1c(=O)c2cccn2c2cccnc21)Nc1ccccc1C(F)(F)F
1.9%,CCOC(=O)CSc1nc2cc3c(cc2cc1C#N)OCO3
4.2%,Cc1ccc(C)c(NS(=O)(=O)c2ccc3c(c2)n(C)c(=O)n3C)c1
1.0%,CCOC(=O)c1ccc(NC(=O)CSc2nnc(COc3ccccc3)n2C)cc1
2.1%,COc1ccc(C(=O)N2CCC(C(=O)Nc3ccccc3Cl)CC2)cc1
-2.7%,COC(=O)N1CCC2(CCCN(C(=O)Nc3ccc(OC)cc3)C2)CC1
-1.3%,CCOCCCNC(=S)NCCNc1nc2ccc(C)cc2cc1C#N
-3.1%,CCCCc1cc(=O)oc2cc(OCC(=O)Nc3cccnc3)c(Cl)cc12
5.7%,O=C(COC(=O)c1ccc([N+](=O)[O-])o1)NC1CCCC1
0.3%,COc1cc2c(cc1OC)N1C(=O)CC(OCC(=O)O)C3C4CC5(CCN5C(=O)C4=O)C2C31 (stereo not given)
22.0%,COc1ccc(C2C3=C(CCCC3=O)Nc3c(-c4ccccc4)c(C)nn32)cc1 (stereo not given)
-12.2%,O=S(=O)(Nc1ccc(-c2ccc3nncn3n2)cc1)c1ccc(Cl)s1
-8.4%,CCOC(=O)N1CCc2c(sc3c2C(=O)NC(c2cc(OC)c(OC)c(OC)c2)N3)C1 (stereo not given)
3.2%,COC(=O)[C@@H](NC(=O)O[C@@H]1C(=O)c2ccc(OC)cc2O[C@H]1c1cccc(C(F)(F)F)c1)C(C)C

Further results follow:
VDR inhibitor,Compound
-13.5%,Cc1ccc(CN(C)C(=O)CCNS(=O)(=O)c2ccccc2)o1
-12.3%,COc1ccc(S(=O)(=O)N(C)c2ccc(C(=O)N3CCCC3)cc2)cc1OC
-1.4%,COC(=O)c1ccc(C(=O)OC)c(NC(=O)C(C)C)c1
-5.3%,Cc1ccccc1C(=O)NC[C@@H]1CCCN2CCCC[C@H]12
4.7%,CCCCc1ccc(-c2csc(/C(C#N)=C/c3ccc(C)o3)n2)cc1
-5.0%,Cc1ccc(C(=O)N(Cc2ccccc2)C(C)(C)C)cc1C
-1.6%,O=S(=O)(c1ccccc1)N1CCn2c(nc3ccccc32)C1
5.5%,Cc1onc(-c2ccccc2)c1C(=O)/C=C/N(C)C
-20.0%,CCOC(=O)c1c(-c2ccc(Br)cc2)csc1NC(=O)c1ccc(F)cc1
-6.0%,COc1cccc(-c2nc(NCc3ccco3)c3ccccc3n2)c1O
-27.0%,CSCCC1COC(c2cccs2)=N1 (stereo not given)
-16.1%,COc1ccc2[nH]c3c(=O)n(Cc4ccco4)cnc3c2c1
-1.0%,c1ccc(N2OCC3Cn4c(nc5ccccc54)C32)cc1 (stereo not given)
-1.7%,CCn1nccc1C(=O)Nc1nc2ccccc2n1CCN1CCCCC1
4.1%&2.9%,CCN1C(=O)c2ccccc2S(=O)c2ccc(C(=O)NCc3ccc(OC)cc3)cc21 (stereo not given)
-6.5%,COCCN(C(=O)c1ccc(-c2ccc(Cl)cc2)o1)c1c(N)n(CC(C)C)c(=O)[nH]c1=O
-1.4%,COc1cc(-c2nc(C(N)=O)c3c(n2)n(-c2cccc(C)c2)c(=O)n3C)cc(OC)c1OC
-13.8%,CC(C)Oc1ccc(C2CNC(=O)C2)cc1 (stereo not given)
-17.5%,CCOC(=O)c1sc2nc(C)nc(N3CCCCC3C)c2c1C (stereo not given)
-9.7%,C=CCn1c(SCC#N)nc2ccc(Cl)cc2c1=O
-6.3%,COc1ccccc1CNC(=O)CCCCn1c(=O)c2ccccc2n(Cc2ccccc2F)c1=O
-5.2%,Nc1c(C(=O)Nc2ccc3c(c2)OCCO3)nnn1Cc1ccc(Cl)cc1
-18.1%,Cn1cc(CN2CCc3c([nH]c4ccccc34)C2C2CCCCC2)cn1 (stereo not given)
-9.0%,Cn1c2c(c(=O)c3ccccc31)CCC(C)(C)O2
-12.5%,CC(=O)Nc1ccc(N/C(N)=N/c2nc(C)cc(C)n2)cc1
10.3%,FC(F)(F)c1cnc(N2CCCN(C(=S)Nc3ccccc3)CC2)c(Cl)c1
8.5%,COc1ccc(N2CCN(C(=O)c3cc4ccc5cccnc5c4[nH]3)CC2)cc1
-14.6%,CC1=CC(C)(C)N=C(Nc2ccc(C)cc2)S1
-11.1%,Cc1ccc2nc(NC(=O)CC3Oc4ccccc4NC3=O)sc2c1 (stereo not given)
-9.9%&7.6%,CCN(CC)CCNC(=O)C1CCN(S(=O)(=O)c2c(C)noc2/C=C/c2ccccc2F)CC1

More compounds:
VDR inhibitor,Compound
-9.7%,CCOc1ccccc1NC(=O)c1cc2c(Cl)nc3ccccc3c2s1
-4.8%,COc1ccc(N2CCN(C(=O)CSc3nnc(-c4ccc5[nH]c(C)c(C)c5c4)o3)CC2)cc1
23.7%,c1ccc(CN2CCC3(CC2)Nc2ccccc2CO3)cc1
-14.8%,COc1ccccc1CNC(=O)c1ccc(CS(=O)(=O)c2c(Cl)cccc2Cl)o1
-3.8%,O=C(CC1CCCC1)N1CCCC(Nc2cccc(F)c2)C1 (stereo not given)
-12.5%,CC(=O)NNC(=S)NC(=O)c1ccc(C)cc1
-1.0%,COC(=O)c1ccc(CNC(=O)CNc2cc(C(F)(F)F)ccc2N2CCOCC2)cc1
16.8%,COc1ccc(Nc2nc(-c3ccc(C)cc3)nc3ccccc23)c(OC)c1
-16.6%,COc1cccc(C2=NOC(C(=O)Nc3ccccc3SC)C2)c1 (stereo not given)
4.7%,S=C(Nc1ccc(Cl)cc1Cl)N1CCOCC1
-2.5%,O=C(c1ccc([N+](=O)[O-])cc1)N(Cc1ccccc1)c1ccccn1
2.2%,COC(=O)c1ccccc1NC(=O)c1cc(C)no1
-3.6%,O=C(c1ccccc1Cl)N1CCN(C(=O)C2CCCO2)CC1 (stereo not given)
4.3%&-0.8%,N[C@@H](CCS(=O)O)C(=O)O
-1.0%,Cc1cc(C)cc(NC(=O)CC23CC4CC(C2)CC(n2nnc(C)n2)(C4)C3)c1
-2.7%,CCCNC(=O)COC(=O)c1ccccc1OCC(=O)Nc1ccc(Br)cc1
3.7%&-6.0%,Nc1ncnc2n[nH]c(Nc3ccc(F)cc3)c12
-9.5%,CC(C)n1cc(CN2CCC(Oc3ccc(C(=O)N4CCCCC4)cc3)CC2)cn1
-10.1%,CCc1cc(=O)oc2cc(OCC(=O)O)c(Cl)cc12
9.0%,CSc1ncccc1C(=O)NCc1ccc(C)cc1
7.5%,CC1CCN(c2ccc3nnc(CCC(=O)N4CCN(c5ccc(F)cc5)CC4)n3n2)CC1
3.7%,COc1cccc(CNC(=O)C2CCN(S(=O)(=O)c3cnc[nH]3)CC2)c1
-4.3%,Cc1ccccc1-c1csc(N)n1
-2.9%,O=C(Nc1nccs1)c1sc2ccccc2c1Cl
-4.9%,O=c1c2ccccc2n2c(=S)[nH]nc2n1-c1ccccc1
5.4%,CCOCCCNCc1cccc(OCc2ccc(F)cc2)c1
-3.8%,CC1CCN(C(=O)c2ccc(NC(=O)c3nsc4ccccc34)cc2)CC1
1.3%,CC(C)CCNC(=O)C(=O)NC1CCCC1
11.4%,Cc1nnc(SCC(=O)N(C)c2ccccc2)n1Cc1ccccc1
5.5%,Cn1c(Cn2nnc3ccccc32)nnc1SCC(=O)Nc1ccc2c(c1)OCO2

More records:
VDR inhibitor,Compound
-11.5%,O=C(O)CCS(=O)(=O)Cc1cccc(Cl)c1
-28.6%,O=C(CSc1nc2ccccc2n1Cc1ccc(Cl)cc1)N/N=C/c1ccc(C(=O)O)cc1
-0.6%,Cc1noc(C)c1CSCC(=O)Nc1cc(C(F)(F)F)ccc1N1CCCCC1
u,N#C/C(=C(/O)CCl)c1nc2c(s1)CCc1ccccc1-2
-3.4%,CC(=O)Nc1ccc(NC(=O)C(C)OC(=O)c2cccs2)cc1 (stereo not given)
-28.1%,Cc1c(NC(=O)c2cccs2)c(=O)n(-c2ccccc2)n1C
-19.4%,CCOc1ccc(NC(=O)c2sc3ccccc3c2Cl)cc1
7.0%,Cc1occc1C(=O)NCCCCNC(=O)c1ccoc1C
-3.1%,Cc1ccc(C)c(OCCn2c(-c3ccc(Cl)cc3)nc3ccccc3c2=O)c1C

7 compounds out of the list above, ordered by the value under VDR inhibitor, descending:
VDR inhibitor,Compound
7.0%,Cc1occc1C(=O)NCCCCNC(=O)c1ccoc1C
-0.6%,Cc1noc(C)c1CSCC(=O)Nc1cc(C(F)(F)F)ccc1N1CCCCC1
-3.1%,Cc1ccc(C)c(OCCn2c(-c3ccc(Cl)cc3)nc3ccccc3c2=O)c1C
-3.4%,CC(=O)Nc1ccc(NC(=O)C(C)OC(=O)c2cccs2)cc1 (stereo not given)
-11.5%,O=C(O)CCS(=O)(=O)Cc1cccc(Cl)c1
-28.1%,Cc1c(NC(=O)c2cccs2)c(=O)n(-c2ccccc2)n1C
-28.6%,O=C(CSc1nc2ccccc2n1Cc1ccc(Cl)cc1)N/N=C/c1ccc(C(=O)O)cc1

Source: PubChem
